Source: PubChem
HIV Env fusion = blocks HIV Env-driven cell-cell fusion | 360,000 compounds, 1.1% hits | HeLa-JRFL Env/CEM21 cell fusion, luciferase | inhibition, % at 12.3 µM;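 active means mean replicate inhibition score of at least 50 and every replicate individually at or above 50; inconclusive means only one of the two criteria met; inactive means mean below 50 and not all replicates reaching 50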;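 further: 0% = plate neutral controls and 100% = maraviroc near 300 nM; one replicate is shown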
Yeast UUG start = modulators of start codon recognition fidelity in yeast; S. cerevisiae UUG-firefly luciferase reporter, luminescence/redox ratio; 350,000 compounds, 0.13% hits; AID 602363; activity score, % at 18.7 µM;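 active means replicate mean at a twofold rise or more, about +100% in these data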;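 further: firefly luciferase made from a UUG start codon reports start codon fidelity; reporter light over untreated wells divided by growth signal over untreated wells; some hits fall short of that in this replicate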
* hit, by the source's call; u = inconclusive; [ ] = remark or other dose.

Below each SMILES: HIV Env fusion, Yeast UUG start
#1 C[C@@H]1CCCCO[C@H](CN(C)C(=O)CCCN(C)C)[C@@H](C)CN([C@H](C)CO)C(=O)c2cc(NC(=O)c3ccccc3)ccc2O1
    -3.9[16.7 µM], -5.1
#2 Cc1ccc(S(=O)(=O)N(C)C[C@H]2Oc3c(NS(=O)(=O)c4ccccc4)cccc3C(=O)N([C@H](C)CO)C[C@@H]2C)cc1
    -23.6[16.7 µM], -8.3
#3 CNC[C@@H]1Oc2cc(-c3cccc(C(=O)N(C)C)c3)ccc2S(=O)(=O)N([C@@H](C)CO)C[C@H]1C
    -14.6[16.7 µM], -0.3
#4 Cc1noc(C)c1NC(=O)Nc1cccc2c1O[C@@H](CN(C)C(=O)Nc1c(C)noc1C)[C@H](C)CN([C@@H](C)CO)C2=O
    -8.3[16.7 µM], 4.6
#5 COCC#Cc1ccc2c(c1)O[C@@H](CN(C)Cc1ccc(F)cc1)[C@@H](C)CN([C@@H](C)CO)S2(=O)=O
    2.2[16.7 µM], 2.2
#6 C[C@H](CO)N1C[C@H](C)[C@@H](CN(C)C(=O)c2cccnc2)Oc2ncc(-c3ccc(C#N)cc3)cc2C1=O
    1.3[16.7 µM], 2.5
#7 C[C@@H]1CCCCO[C@H](CN(C)C(=O)CCCN(C)C)[C@@H](C)CN([C@H](C)CO)C(=O)c2cc(NS(=O)(=O)c3cn(C)cn3)ccc2O1
    0.3[16.7 µM], -3.3
#8 CC(C)CC#Cc1ccc2c(c1)O[C@H](CN(C)C(=O)c1ccccc1)[C@H](C)CN([C@H](C)CO)S2(=O)=O
    24.7[16.7 µM], 0.9
#9 Cc1ccc(S(=O)(=O)Nc2ccc3c(c2)C(=O)N([C@@H](C)CO)C[C@@H](C)[C@H](CN(C)CC2CCCCC2)OCCCC[C@H](C)O3)cc1
    -11.2[16.7 µM], 11.1
#10 Cc1ccc(S(=O)(=O)Nc2cccc3c2O[C@H](CN(C)S(=O)(=O)c2ccc(C)cc2)[C@@H](C)CN([C@H](C)CO)C3=O)cc1
    -27.7[16.7 µM], -11.7
#11 C[C@@H]1CN([C@@H](C)CO)C(=O)c2cc(C#CCN(C)C)cnc2O[C@@H]1CN(C)Cc1ccc(F)cc1
    -4.8[16.7 µM], 2.4
#12 COCC(=O)Nc1ccc2c(c1)OC[C@H](C)N(CCC(F)(F)F)C[C@@H](C)[C@H](OC)CN(C)C2=O
    -6.3[16.7 µM], -14.2
#13 COc1ccc(NC(=O)N[C@H]2CC[C@@H](CC(=O)NC3CCCCC3)O[C@H]2CO)cc1
    1.6[16.7 µM], 6.0
#14 C[C@@H]1CN([C@H](C)CO)C(=O)c2cc(NC(=O)CCC(F)(F)F)ccc2O[C@H]1CN(C)Cc1ccccc1
    4.6[16.7 µM], -4.5
#15 O=S(=O)(N[C@@H]1CC[C@H](CCn2cc(C3CC3)nn2)O[C@H]1CO)c1ccc(Cl)cc1
    2.9[16.7 µM], -3.1
#16 COc1ccc(CN(C)C[C@@H]2Oc3c(NC(=O)c4ccncc4)cccc3C(=O)N([C@@H](C)CO)C[C@H]2C)cc1
    25.9[16.7 µM], -2.0
#17 C[C@@H]1CCCCO[C@H](CN(C)C(=O)Cc2ccccc2)[C@H](C)CN([C@@H](C)CO)C(=O)c2cc(NC(=O)CCC(F)(F)F)ccc2O1
    -13.5[16.7 µM], 0.1
#18 C[C@@H]1CCCCO[C@@H](CN(C)Cc2ccccc2)[C@H](C)CN([C@H](C)CO)C(=O)c2cc(NC(=O)c3ccccc3)ccc2O1
    25.9[16.7 µM], 14.6
#19 COc1cccc(S(=O)(=O)N[C@H]2CC[C@@H](CCn3cc(-c4ccccc4)nn3)O[C@@H]2CO)c1
    -11.1[16.7 µM], 8.8
#20 CCCNC(=O)C[C@H]1CC[C@H]2[C@H](COc3ccc(NC(=O)c4cc(C)on4)cc3C(=O)N2C)O1
    -11.1[16.7 µM], 30.3
#21 O=C(Nc1ccc2c(c1)OCO2)N[C@@H]1CC[C@H](CCNC(=O)C2CCC2)O[C@H]1CO
    -1.3[16.7 µM], 0.3
#22 C[C@H](CO)N1C[C@H](C)[C@H](CN(C)CC2CCCCC2)OCCCC[C@H](C)Oc2ccc(NC(=O)NC3CCCCC3)cc2C1=O
    2.7[16.7 µM], 8.7
#23 COc1ccc(CN(C)C[C@@H]2Oc3ccc(NC(=O)C4CCCCC4)cc3CC(=O)N([C@H](C)CO)C[C@H]2C)cc1
    -22.9[16.7 µM], 3.9
#24 O=C(Nc1ccc(C(F)(F)F)cc1)N[C@H]1C=C[C@@H](CC(=O)N2CCCCC2)O[C@@H]1CO
    1.5[16.7 µM], 27.0
#25 Cc1ccccc1S(=O)(=O)N[C@H]1CC[C@@H](CCn2cc(-c3ccccc3)nn2)O[C@@H]1CO
    -0.7[16.7 µM], 12.8
#26 COc1ccc(S(=O)(=O)N(C)C[C@H]2OCCCC[C@@H](C)Oc3ccc(NS(=O)(=O)c4ccc(C)cc4)cc3C(=O)N([C@@H](C)CO)C[C@H]2C)cc1
    -65.5[16.7 µM], 0.3
#27 O=C(C[C@H]1C[C@@H]2c3cc(NC(=O)NC4CCCC4)ccc3O[C@@H]2[C@H](CO)O1)NC1CCCCC1
    4.7[16.7 µM], -9.8
#28 C[C@@H]1CN([C@@H](C)CO)C(=O)c2cc(NS(C)(=O)=O)ccc2O[C@@H](C)CCCCO[C@@H]1CN(C)S(=O)(=O)c1cccs1
    -1.6[16.7 µM], 3.7
#29 COCC#Cc1cnc2c(c1)C(=O)N([C@@H](C)CO)C[C@H](C)[C@@H](CN(C)S(=O)(=O)c1cccc(OC)c1)O2
    29.5[16.7 µM], 17.8
#30 CCCN1C[C@H](C)[C@H](OC)CN(C)C(=O)c2ccc(NS(C)(=O)=O)cc2OC[C@H]1C
    -4.3[16.7 µM], 11.3
#31 Cc1noc(C)c1S(=O)(=O)N(C)C[C@@H]1OCCCC[C@H](C)Oc2ccc(NC(=O)Nc3ccc(F)cc3)cc2C(=O)N([C@H](C)CO)C[C@H]1C
    7.8[16.7 µM], 7.5
#32 COc1ccc(S(=O)(=O)N[C@H]2CC[C@@H](CC(=O)N3CCN(c4ccccc4)CC3)O[C@H]2CO)cc1
    6.5[16.7 µM], 17.9
#33 C[C@@H]1CCCCO[C@@H](CN(C)S(=O)(=O)c2ccccc2)[C@@H](C)CN([C@H](C)CO)C(=O)c2cc(NS(=O)(=O)c3cccs3)ccc2O1
    7.7[16.7 µM], 0.0
#34 C[C@H](CO)N1C[C@H](C)[C@@H](CN(C)C(=O)Cc2ccccc2)OCCCC[C@H](C)Oc2ccc(NS(=O)(=O)c3cccs3)cc2C1=O
    -7.9[16.7 µM], 1.7
#35 COC(=O)C[C@H]1CC[C@H]2[C@H](COc3ccc(NC(=O)c4cccs4)cc3C(=O)N2C)O1
    0.5[16.7 µM], 1.6
#36 C[C@H]1CCCCO[C@H](CN(C)CC2CCCCC2)[C@@H](C)CN([C@@H](C)CO)C(=O)c2cc(NC(=O)c3ccccc3)ccc2O1
    u, 39.8
#37 C[C@@H]1CN([C@@H](C)CO)C(=O)c2cc(C#Cc3ccccc3)cnc2O[C@@H]1CN(C)C(=O)c1ccccc1
    34.9[16.7 µM], 21.5
#38 O=C(C[C@@H]1C=C[C@@H](NS(=O)(=O)c2ccc(F)cc2)[C@@H](CO)O1)NCCc1ccncc1
    12.3[16.7 µM], -9.8
#39 C[C@@H]1CN([C@@H](C)CO)C(=O)c2cccc(NC(=O)NC3CCCCC3)c2O[C@@H]1CN(C)Cc1ccccc1
    -1.1[16.7 µM], 4.3
#40 C[C@@H]1CN([C@@H](C)CO)C(=O)c2cc(C#CC3CC3)cnc2O[C@@H]1CN(C)C(=O)CC1CC1
    -6.7[16.7 µM], 3.1
#41 O=C(C[C@H]1C=C[C@H](NC(=O)Cc2cccnc2)[C@H](CO)O1)NCc1ccc2c(c1)OCO2
    -4.0[16.7 µM], -1.0
#42 C[C@H]1CN([C@@H](C)CO)C(=O)Cc2cc(NC(=O)Nc3ccc4c(c3)OCO4)ccc2O[C@@H]1CN(C)C(=O)Nc1ccccc1
    -27.7[16.7 µM], 8.9
#43 Cc1ccc(F)cc1S(=O)(=O)N[C@@H]1CCN(C(=O)c2ccc(OC(C)C)cc2)C1
    -1.0[16.7 µM], 12.3
#44 Cc1ccc(S(=O)(=O)Nc2ccc3c(c2)C(=O)N([C@H](C)CO)C[C@H](C)[C@H](CN(C)S(=O)(=O)c2ccc(C)cc2)OCCCC[C@@H](C)O3)cc1
    -16.9[16.7 µM], 2.8
#45 Cc1noc(C)c1S(=O)(=O)Nc1ccc2c(c1)C(=O)N([C@H](C)CO)C[C@H](C)[C@@H](CN(C)S(=O)(=O)c1ccc(F)cc1)OCCCC[C@@H](C)O2
    -7.7[16.7 µM], -8.9
#46 Cc1ccc(S(=O)(=O)Nc2ccc3c(c2)C(=O)N([C@@H](C)CO)C[C@@H](C)[C@H](CN(C)S(C)(=O)=O)O3)cc1
    -11.7[16.7 µM], -14.5
#47 COc1ccc(CN(C)C[C@@H]2OCCCC[C@@H](C)Oc3ccc(NS(=O)(=O)c4cn(C)cn4)cc3C(=O)N([C@H](C)CO)C[C@@H]2C)cc1
    8.1[16.7 µM], -5.3
#48 COC(=O)C[C@H]1C[C@H]2c3cc(NC(=O)c4cccnc4)ccc3O[C@H]2[C@@H](CO)O1
    2.8[16.7 µM], -2.9
#49 C[C@H](CO)N1C[C@H](C)[C@H](CN(C)C(=O)Nc2ccccc2F)Oc2ncc(/C=C/c3ccccc3)cc2C1=O
    -7.4[16.7 µM], -1.7
#50 C[C@H]1CN([C@@H](C)CO)C(=O)c2cc(-c3cccc(F)c3)cnc2O[C@@H]1CN(C)C
    -23.7[16.7 µM], -7.3
#51 C[C@@H]1CCCCO[C@@H](CN(C)C(=O)Nc2ccc(C(F)(F)F)cc2)[C@@H](C)CN([C@H](C)CO)C(=O)c2cc(NC(=O)CCC(F)(F)F)ccc2O1
    -29.6[16.7 µM], -11.9
#52 O=C(C[C@H]1CC[C@@H](NS(=O)(=O)c2ccc(F)cc2)[C@H](CO)O1)N1CCc2ccccc2C1
    1.6[16.7 µM], -8.1
#53 C[C@@H]1CN([C@H](C)CO)C(=O)c2cc(NC(=O)Nc3ccc(F)cc3)ccc2O[C@@H](C)CCCCO[C@H]1CN(C)Cc1ccc(Cl)c(Cl)c1
    32.8[16.7 µM], -0.5
#54 Cc1noc(C)c1S(=O)(=O)Nc1ccc2c(c1)C(=O)N([C@@H](C)CO)C[C@@H](C)[C@@H](CN(C)C(=O)CCC(F)(F)F)OCCCC[C@H](C)O2
    1.3[16.7 µM], 15.8
#55 CC(C)NC(=O)N(C)C[C@H]1OCCCC[C@H](C)Oc2ccc(NS(=O)(=O)c3cn(C)cn3)cc2C(=O)N([C@@H](C)CO)C[C@@H]1C
    -18.9[16.7 µM], 7.0
#56 COc1ccc(S(=O)(=O)Nc2ccc3c(c2)C(=O)N([C@@H](C)CO)C[C@@H](C)[C@@H](CN(C)C(=O)Nc2ccc(F)cc2)O3)cc1
    14.9[16.7 µM], -3.3
#57 CC(=O)N(C)C[C@H]1Oc2cc(C#Cc3ccccc3)ccc2S(=O)(=O)N([C@H](C)CO)C[C@@H]1C
    15.4[16.7 µM], 52.9
#58 O=C(C[C@@H]1CC[C@H](NC(=O)c2cnccn2)[C@@H](CO)O1)NCc1ccccc1F
    2.0[16.7 µM], -5.5
#59 CC(C)C#Cc1ccc2c(c1)O[C@H](CN(C)C(=O)Cc1ccccn1)[C@H](C)CN([C@@H](C)CO)S2(=O)=O
    -12.9[16.7 µM], 15.1
#60 Cc1noc(C)c1NC(=O)N(C)C[C@@H]1Oc2ccc(NC(=O)Nc3ccc4c(c3)OCO4)cc2CC(=O)N([C@H](C)CO)C[C@H]1C
    -8.4[16.7 µM], 8.4

(more compounds)
Below each SMILES: HIV Env fusion, Yeast UUG start
#61 C[C@H]1CN([C@@H](C)CO)C(=O)c2cccc(NC(=O)NC3CCCCC3)c2O[C@@H]1CN(C)C(=O)Nc1ccc(F)cc1
    -8.9[16.7 µM], -2.1
#62 CCCc1cn(CC[C@H]2CC[C@H](NC(=O)Nc3ccccc3F)[C@H](CO)O2)nn1
    12.0[16.7 µM], 7.4
#63 C[C@H]1CN([C@@H](C)CO)C(=O)c2cc(C3=CCCCC3)cnc2O[C@@H]1CN(C)C(=O)Cc1cccnc1
    22.4[16.7 µM], -5.5
#64 CN(C)CC(=O)Nc1ccc2c(c1)[C@H]1C[C@H](CC(=O)NCc3ccncc3)O[C@@H](CO)[C@H]1O2
    8.3[16.7 µM], -15.3
#65 Cc1ccc(S(=O)(=O)N(C)C[C@H]2Oc3cc(C#Cc4ccccc4)ccc3S(=O)(=O)N([C@@H](C)CO)C[C@@H]2C)cc1
    8.0[16.7 µM], -11.6
#66 COc1ccc(NC(=O)Nc2ccc3c(c2)CC(=O)N([C@@H](C)CO)C[C@H](C)[C@H](CN(C)S(C)(=O)=O)O3)cc1
    3.6[16.7 µM], 1.3
#67 COc1ccc(NC(=O)Nc2cccc3c2O[C@H](CN(C)C(=O)NC2CCCCC2)[C@H](C)CN([C@H](C)CO)C3=O)cc1
    -5.1[16.7 µM], 6.3
#68 COc1ccc(S(=O)(=O)Nc2cccc3c2O[C@@H](CN(C)S(C)(=O)=O)[C@@H](C)CN([C@@H](C)CO)C3=O)cc1
    28.0[16.7 µM], 13.6
#69 Cc1noc(C)c1NC(=O)Nc1ccc2c(c1)C(=O)N([C@H](C)CO)C[C@H](C)[C@@H](CN(C)C(=O)Nc1ccc(F)cc1)OCCCC[C@@H](C)O2
    4.6[16.7 µM], 10.2

Only part of the results is shown; count on the stated rates, not on these rows.
